eIF4H inh = inhibitors of RNA binding by human eIF4H; Q15056; 0.94% of 290,000 active; eIF4H fluorescence polarization binding assay; inhibition, % at 35 µM; AID 2012;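 active = 50% or more with normal probe brightness, or confirmed in later tests; inconclusive = above 50% with abnormal brightness, or retests that disagree; inactive = below 50% or failed in later tests; about a fifth of its hits are not listed in these tables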;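 also: calls also rest on retests at 20 µM and on dose response follow-up; 0% = protein and probe with vehicle and 100% = probe without protein; strong numbers were not always called active; many hits fall short of the cut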
PABP FP inh = PABP-poly(A) binding inhibition; PABP-poly(A) RNA binding, fluorescence polarization; inhibition, % at 35 µM; 1% of 290,000 active; AID 2014;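 active = 50% or more with normal probe brightness, or confirmed in later tests; inconclusive = above 50% with abnormal brightness, or retests that disagree; inactive = below 50% or failed in later tests; about a fifth of its hits are not listed in these tables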;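 also: calls also rest on retests at 20 µM and on dose response follow-up; controls were probe without protein and protein plus probe with vehicle; some compounds called inactive have numbers as strong as hits; many hits fall short of the cut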
HIV Env fusion = inhibitors of HIV Env-mediated cell fusion. HeLa-JRFL Env/CEM21 cell fusion, luciferase. inhibition, % at 12.3 µM. 1.1% of 360,000 active;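 active = mean replicate inhibition score of at least 50 and every replicate individually at or above 50; inconclusive = only one of the two criteria met; inactive = mean below 50 and not all replicates reaching 50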;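 also: 0% = plate neutral controls and 100% = maraviroc near 300 nM; one replicate is shown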
CSC inhib = blocks cancer stem cells | cancer stem cell-like cells viability, luminescence | inhibition, % at 7.5 µM | 1.1% of 300,000 active | AID 2717;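 active = mean at 75% or more and at least half the replicates too; inconclusive = mean and replicates disagree; tested in HMLE shEcad cells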;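 also: 0% = median of negative and 100% = median of positive control wells; the first replicate is given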
MT1-MMP act inh = blocks activation of human MT1-MMP | GFP/RFP ratio change, % at 20 µM | P50281 | 0.061% of 360,000 active | HT1080 RFP-PRO-GFP cells, GFP/RFP ratio fluorescence, overnight; percent of plate control window, DMSO zero | AID 651647;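 active = GFP/RFP ratio change of at least 30% with cell ATP level not reduced by more than half and red fluorescence within 50% of control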; also: strong numbers were not always called active
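Compound: 20 µM single dose, 1% DMSO / System: HT1080 RFP-PRO-GFP cells / Controls: DMSO and RFP-L50D-GFP cell wells / Read-out basis: GFP/RFP fluorescence ratio / Schedule: overnight compound exposure at 37 °C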
UUG fidelity = alters start codon recognition fidelity in yeast | S. cerevisiae UUG-firefly luciferase reporter, luminescence/redox ratio | activity score, % at 18.7 µM | 0.13% of 350,000 active;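 active = replicate mean at a twofold rise or more, about +100% in these data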;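 also: firefly luciferase made from a UUG start codon reports start codon fidelity; reporter light over untreated wells divided by growth signal over untreated wells; some hits fall short of that in this replicate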
Rce1 inhib = inhibitors of yeast Ras-converting enzyme; Q03530; yeast membranes, quenched prenylated peptide cleavage fluorescence; calls only; 0.27% of 290,000 active; AID 2563;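 active = fall in fluorescence gain of 50% or more versus controls, with final raw signal at or below 3038400; inconclusive = same 50% fall but final raw signal above 3038400; inactive = fall in fluorescence gain under 50%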;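 also: plate controls were neutral control wells for no effect and wells lacking membranes for full effect; tested at 10 µM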
Target sequence (Q03530 whole entry, looked up): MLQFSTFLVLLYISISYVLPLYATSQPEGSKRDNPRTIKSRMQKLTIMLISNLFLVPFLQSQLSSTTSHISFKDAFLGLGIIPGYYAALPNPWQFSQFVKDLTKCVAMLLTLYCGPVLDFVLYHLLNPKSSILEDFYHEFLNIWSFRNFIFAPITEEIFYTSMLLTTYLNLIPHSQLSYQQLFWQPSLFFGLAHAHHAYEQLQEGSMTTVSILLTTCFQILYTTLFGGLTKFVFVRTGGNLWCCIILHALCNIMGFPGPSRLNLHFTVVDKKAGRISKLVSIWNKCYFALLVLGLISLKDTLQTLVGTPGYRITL
MT1-MMP act inh RFP = further read-out of MT1-MMP act inh, marked with its call; RFP signal change, %; measured here: RFP expression control read;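 0 = vehicle wells; hits needed this value within 50% of zero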
Active calls of the source: *; i = inactive; u = inconclusive; x = not tested or not shown; & = joins results of further samples. Compounds were not picked by outcome; about 3% have a hit in one of these screens.

Screens in order – eIF4H inh	PABP FP inh	HIV Env fusion	CSC inhib	MT1-MMP act inh	MT1-MMP act inh RFP	UUG fidelity	Rce1 inhib
[1] Cc1ccc(Cc2nnc(SCC(=O)Nc3ccccc3)n(N)c2=O)cc1
    x	x	x	-9	-2	1	-10	i
[2] OCCN(Cc1ccccc1)Cc1ccccc1O
    5	-12	-7	-14	0	3	x	i
[3] Cc1noc(C)c1S(=O)(=O)N(CC(=O)N1CCCCCC1)c1ccc(C(C)C)cc1
    -2	0	38	5	-6	-10	-12	i
[4] c1ccc(C(c2nnnn2C2CCCCC2)N2CCc3ccccc3C2)nc1 (centres undefined)
    25	24	x	-7	-11	5	3	i
[5] CC1(C(=O)OCC(=O)NCc2ccc(Cl)cc2)CC1(Cl)Cl (centres undefined)
    x	x	0	-8	0	5	-16	x
[6] Cc1ccc(-c2cc(C(=O)N3CCN(c4ccc(O)cc4)CC3)c3ccccc3n2)cc1
    x	x	-10	79*	2	0	-13	x
[7] CN(C)CCCNS(=O)(=O)c1cc(Cl)c(Cl)cc1Cl
    0	1	-9	15	1	2	x	i
[8] CCOc1ccc(CCNC(=O)Cn2c(=O)oc3ccccc32)cc1OCC
    -3	-12	x	-3	-1	-1	x	i
[9] COc1cccc(NC(=O)CN(C)CC(=O)NCc2ccc3c(c2)OCO3)c1
    x	x	-7	x	-6	1	4	x
[10] CC(C)c1ccc(NC(=O)c2cc(S(=O)(=O)NCC3COc4ccccc4O3)ccc2F)cc1 (centres undefined)
    3	4	5	123*	6	5	x	i
[11] COc1ccccc1OC[C@H](O)CO
    -11	-1	14	-12	-2	8	-20	i
[12] Cc1ccc(S(=O)(=O)N2C[C@H]3n4c(=O)ccc(=O)n4C[C@H](OC(=O)Nc4c(C)noc4C)[C@@]3(O)C2)cc1
    x	x	-9	x	2	3	3	x
[13] CN(C)CCCSc1nc2ccccc2s1
    1	-3	-2	-16	-6	-1	x	i
[14] Cc1ccc(CN(Cc2ccco2)C(=S)NCC(=O)O)cc1
    1	1	-17	1	2	-2	-7	i
[15] C/C(=N\NC(=O)CSc1nnc(C)s1)c1ccc(Cl)cc1
    -7	2	8	6	4	4	-15	i
[16] Cc1ccc(SCC(=O)OCC(=O)N(CC(C)C)c2c(N)n(Cc3ccccc3)c(=O)[nH]c2=O)cc1C
    x	x	1	-4	-3	1	-10	i
[17] CCO[C@@H]1OC(C(=O)NCc2nc3ccccc3[nH]2)=C[C@H](c2cn(C(C)=O)c3ccccc23)[C@H]1CCCO
    0	2	4	9	-1	1	-12	i
[18] O=C(Nc1ccc2c(c1)COC2=O)c1ccc(Cl)c(Cl)c1
    16	16	-166	-7	1	-2	-12	i
[19] CC(=O)C1=C(C)NC(SCC(=O)c2ccc(Cl)cc2Cl)=C(C#N)C1c1ccco1 (centres undefined)
    12	22	x	22	-32	-2	2	i
[20] COCCn1c(SCC(=O)N2CCc3ccccc3C2)nc2ccccc2c1=O
    -7	35	27	-7	-2	-4	x	i
[21] CC(=O)Nc1ccc(S(=O)(=O)Nc2nnc(C(C)(C)C)s2)cc1
    -11	6	-42	2	-1	-1	-15	i
[22] CS(=O)(=O)c1ccc(Cl)c(NC(=O)Cc2c(F)cccc2Cl)c1
    -12	-3	2	3	-1	-3	x	i
[23] S=c1nc(-c2cccc(Br)c2)[nH][nH]1
    6	2	x	5	6	-1	-31	i
[24] C[C@@H]1CN([C@@H](C)CO)C(=O)c2cc(Br)cnc2O[C@@H]1CN(C)Cc1cncnc1
    x	x	6	x	0	2	-38&-15	x
[25] Cc1cc(NC(=O)COc2ccc([N+](=O)[O-])cc2)no1
    x	x	-6	-16	-1	3	-8	x
[26] CCc1nc2ccc(C(=O)Nc3cc(-c4ccccc4)ccc3OC)cn2c1N(C)Cc1ccc(Cl)cc1
    x	x	10	x	8	-4	-19	x
[27] COc1ccc(CNC(=O)C2CCC(CNS(=O)(=O)c3ccc(C)cc3)CC2)cc1 (centres undefined)
    -10	-4	8	-8	4	-6	-10	i
[28] O=S(=O)(c1ccc(Cl)c(C(F)(F)F)c1)N1CCN(CC(O)COCC2CCCO2)CC1 (centres undefined)
    -4	29	-2	-3	7	5	-9	i
[29] CCNC(=O)COc1ccc2ccccc2c1
    0	8	-60	-14	-1	-1	-9	i
[30] O=S(=O)(c1ccc(F)cc1)N1CCC(c2nc3ccccc3[nH]2)CC1
    2	7	-15	5	-3	-5	-23	i

One compound at a time (already shown):
Record of `Cc1noc(C)c1S(=O)(=O)N(CC(=O)N1CCCCCC1)c1ccc(C(C)C)cc1` → eIF4H inh: -2; PABP FP inh: 0; HIV Env fusion: 38; CSC inhib: 5; MT1-MMP act inh: -6; MT1-MMP act inh RFP: -10; UUG fidelity: -12; Rce1 inhib: i
Record of `CCOc1ccc(CCNC(=O)Cn2c(=O)oc3ccccc32)cc1OCC` → eIF4H inh: -3; PABP FP inh: -12; HIV Env fusion: x; CSC inhib: -3; MT1-MMP act inh: -1; MT1-MMP act inh RFP: -1; UUG fidelity: x; Rce1 inhib: i

Back to the main list, repeating the 4 entries before the break.
Screens in order – eIF4H inh	PABP FP inh	HIV Env fusion	CSC inhib	MT1-MMP act inh	MT1-MMP act inh RFP	UUG fidelity	Rce1 inhib
[27] COc1ccc(CNC(=O)C2CCC(CNS(=O)(=O)c3ccc(C)cc3)CC2)cc1 (centres undefined)
    -10	-4	8	-8	4	-6	-10	i
[28] O=S(=O)(c1ccc(Cl)c(C(F)(F)F)c1)N1CCN(CC(O)COCC2CCCO2)CC1 (centres undefined)
    -4	29	-2	-3	7	5	-9	i
[29] CCNC(=O)COc1ccc2ccccc2c1
    0	8	-60	-14	-1	-1	-9	i
[30] O=S(=O)(c1ccc(F)cc1)N1CCC(c2nc3ccccc3[nH]2)CC1
    2	7	-15	5	-3	-5	-23	i
[31] CC(=O)Oc1ccc(N(C(C)=O)S(=O)(=O)c2ccc3ccccc3c2)cc1Br
    -1	5	-5	19	-4	-8	-10	i
[32] CC(C)(Oc1ccc(Cl)cc1)C(=O)N1CCN(C(=O)c2ccco2)CC1
    3	0	11	0	-2	3	6	i
[33] CCOC(=O)c1cccc(NC(=O)C2CCC(CNc3c(N4CCOCC4)c(=O)c3=O)CC2)c1 (centres undefined)
    1	5	2	2	5	8	4	i
[34] O=C(CNCc1ccccn1)N1CCc2ccccc2C1
    2	-17	15	-12	2	3	-11	i
[35] O=C(CSc1nc2[nH]ncc2c(=O)[nH]1)N1CCCCC1
    3	10	9	-16	x	x	x	i
[36] COCCNC(=O)C1(C)Cc2c(-c3cccc(C(N)=O)c3)ccnc2O1 (centres undefined)
    x	x	2	x	5	7	12	x
[37] CC(C(=O)NCC1(c2ccccc2)CCCC1)N1CCOCC1 (centres undefined)
    6	-8	-24	-3	2	4	-17	i
[38] COc1cccc(-c2nc(=S)c3c(n2Cc2ccco2)CCCC3)c1
    12	18	x	x	-9	-3	-3	i
[39] c1ccc2c(c1)Nc1nccnc1S2
    9	0	-19	-12	-6	5	x	x
[40] Cc1ccc(-c2nnc(CSc3nc(C)nc4sc(C)c(C)c34)o2)cc1
    -6	-17	x	-6	x	x	x	i
[41] CC1CCN(C(=O)CSc2ccc(-c3ccc(F)cc3)nn2)CC1
    -4	4	28	-11	1	-3	-1	i
[42] CN(c1ccccc1)S(=O)(=O)c1cccc(C(=O)NCc2ccccc2CN2CCCC2)c1
    x	x	x	14	-2	-1	-21	x
[43] Cc1cccc(-n2c(CCn3nc(C)c([N+](=O)[O-])c3C)n[nH]c2=S)c1
    11	2	x	-4	-4	5	-18	i
[44] CC(=O)C1=C(O)C(=O)N(c2nccs2)C1c1ccc(F)cc1 (centres undefined)
    5	2	7	-18	1	0	-15	x
[45] CCOC(=O)C1=C(C)NC(C)=C(C(=O)OCC)C1c1ccc(OC)cc1
    -1	-10	12	1	-1	-2	x	i
[46] O=C(Nc1cccc(F)c1)C1CCN(C(=O)N2CCOc3ccccc32)CC1
    2	-10	-14	-10	2	-1	-5	i
[47] O=C(NCCN1CCOCC1)NC1(C(F)(F)F)Oc2ccc(Cl)cc2O1 (centres undefined)
    -12	-1	2	u	-8	-21	x	i
[48] CCN(C(=O)c1c(N)cnn1C)c1ccccc1
    4	-5	-16	-6	1	5	x	i
[49] O=C(Nc1ccc(-c2noc(CCc3ccccc3)n2)cc1)c1cccnc1
    2	-6	x	29	3	-20	-18	i
[50] O=C(CCCCn1c(=O)c2ccccc2n(Cc2ccc(F)cc2)c1=O)NCc1ccco1
    -13	3	x	x	-3	-10	-10	x
[51] CCCn1c(C(O)c2cc(OC)ccc2OC)nc2ccccc21 (centres undefined)
    2	0	x	30	0	0	-26	i
[52] O=C(NCN1C(=O)C2C3C=CC(C3)C2C1=O)Nc1cccnc1 (centres undefined)
    10	8	x	4	-1	6	-17	i
[53] O=C(O)c1cc(S(=O)(=O)N2CC3CC3C2C(=O)O)c(Cl)cc1Cl (centres undefined)
    7	5	20	-20	-4	3	6	i
[54] O=C(NCCc1c[nH]c2ccccc12)c1ccco1
    -7	9	-30	8	2	4	-5	i
[55] Cc1cccc(NC(=O)c2ccc(-n3cncn3)c([N+](=O)[O-])c2)c1
    x	x	x	-3	-2	-6	-13	i
[56] CN(c1cccc(NC(=O)Nc2cccc(Cl)c2)c1)S(C)(=O)=O
    10	4	x	x	-2	-23	-4	i
[57] CCOc1cc(/C=N/NC(N)=O)cc(Br)c1OCC(=O)Nc1cccc2ccccc12
    -6	2	x	x	-7	-13	-10	i
[58] O=C(COc1coc(CN2CCN(c3ccccc3)CC2)cc1=O)Nc1cccc(F)c1
    x	x	x	-6	0	-9	-28	i
[59] Cc1noc(C)c1C1(O)CCCCCCCCCCC1
    3	-5	-1	44	-3	1	8	i
[60] C=C1c2c(Cl)ccc(O)c2C(O)=C2C(=O)[C@]3(O)C(O)=C(C(N)=O)C(=O)[C@@H](N(C)C)[C@@H]3[C@@H](O)C12 (some centres undefined)
    x	x	10	-2	-17	-11	3	x

Further records follow.
Screens in order – eIF4H inh	PABP FP inh	HIV Env fusion	CSC inhib	MT1-MMP act inh	MT1-MMP act inh RFP	UUG fidelity	Rce1 inhib
[61] COc1cc(CNC(=O)Nc2cccn3nc(COCCO)nc23)cc(OC)c1OC
    x	x	2	x	0	-2	-8	x
[62] CCOC(=O)c1c(NC(=O)CSc2ncn[nH]2)sc(C(=O)NC)c1C
    -4	-6	x	-2	-2	-2	-15	i
[63] Cc1ccc(/C=C/C(=O)O)cc1S(=O)(=O)NCCO
    5	4	x	-8	4	7	-14	i
[64] CCOc1ccccc1N1C(=O)CC(Nc2ccc(N3CCOCC3)cc2)C1=O (centres undefined)
    -3	-4	x	-5	13	15	-3	i
